Screening results: PubChem BioAssay, Broad Institute
AF4-AF9 inh – blocks AF4 peptide binding to human AF9; P42568; actives 0.47% (n = 350,000); inhibition, % at 10 µM; AID 651704; AlphaScreen, biotin-AF4 peptide binding to FLAG-AF9;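 active = every replicate reaching a set inhibition limit, whatever the replicate mean, cut at about 25% in these data; inconclusive = mean inhibition reaches that limit but some replicates miss it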;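 also: 0% = plate neutral control median and 100% = total signal loss; the record names both 10 and 1 µM as test concentration; the first replicate is given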
Target sequence (P42568 whole entry, looked up): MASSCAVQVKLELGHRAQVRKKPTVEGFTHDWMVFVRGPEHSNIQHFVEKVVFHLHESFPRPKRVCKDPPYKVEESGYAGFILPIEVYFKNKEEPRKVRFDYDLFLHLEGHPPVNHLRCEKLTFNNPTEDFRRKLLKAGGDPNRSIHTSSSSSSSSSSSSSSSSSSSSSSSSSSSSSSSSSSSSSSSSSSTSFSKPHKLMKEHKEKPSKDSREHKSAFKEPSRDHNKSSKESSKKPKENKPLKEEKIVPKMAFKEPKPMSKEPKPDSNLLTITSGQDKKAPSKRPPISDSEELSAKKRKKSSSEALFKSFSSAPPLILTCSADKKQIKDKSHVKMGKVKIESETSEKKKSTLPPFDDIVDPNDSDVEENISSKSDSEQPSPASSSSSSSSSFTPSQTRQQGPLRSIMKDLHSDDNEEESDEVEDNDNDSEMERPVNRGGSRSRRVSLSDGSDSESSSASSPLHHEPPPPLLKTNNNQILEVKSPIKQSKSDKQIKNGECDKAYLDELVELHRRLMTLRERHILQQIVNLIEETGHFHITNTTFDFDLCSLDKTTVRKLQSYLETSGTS
ALR inh – blocks human ALR sulfhydryl oxidase activity | P55789 | purified ALR, DTT oxidation, H2O2 HRP-luminol luminescence | inhibition, % (test concentration not listed) | actives 3.8% (n = 290,000);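 active = mean and each replicate at 75% or more; inconclusive = only one of the two met; inactive = neither met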;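 also: stock transfer was 7.5 nL into about 7.5 µL; 0% = neutral wells and 100% = wells with inactivated enzyme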
Target sequence (P55789 whole entry, looked up): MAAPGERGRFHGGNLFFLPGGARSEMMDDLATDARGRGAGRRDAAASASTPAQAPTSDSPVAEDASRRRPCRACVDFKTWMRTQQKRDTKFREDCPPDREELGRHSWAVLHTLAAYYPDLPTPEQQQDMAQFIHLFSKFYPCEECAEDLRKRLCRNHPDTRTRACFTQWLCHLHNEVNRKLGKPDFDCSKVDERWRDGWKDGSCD
RanGTP-Impb inh – disruptors of Ran-importin-beta complex formation – biochemical, FRET, CFP-Ran, YFP-importin-beta, homogeneous, primary screen | AID 2216 | inhibition, % (no concentration beside the values) | actives 1.1% (n = 300,000) | cell-free CFP-Ran/YFP-importin-beta FRET ratio;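 active = most replicates above 15%; inconclusive = exactly half above 15%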;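 also: 0% = DMSO wells and 100% = Ran loaded with GDP instead of GTP; wells of about 40 µL received 100 nL stock; the first replicate is given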
Ecoli rRNA inh – inhibitors of bacterial rRNA selective over humanized ribosomes; E. coli WT GFP vs humanized-ribosome RFP mutants, fluorescence, 24 h; stronger effect = lower value; DMSO median 0, no signal -100; GFP signal change (wild-type ribosome), % (no concentration beside the values); actives 1.6% (n = 350,000); AID 720706;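 active = significant combined selectivity score with lowered wild-type GFP, culture density cut under 30%, mutant RFP and density less affected; inactive = any of these conditions unmet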; also: one replicate is shown; some compounds called inactive have numbers as strong as hits
Calb FLC – C. albicans growth modulation with fluconazole | C. albicans CaCi-2 (fluconazole-resistant clinical isolate) + fluconazole, Alamar Blue growth, 48 h | growth inhibition, % (test concentration not listed) | actives 0.57% (n = 300,000) | AID 1979;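 active = most replicates above 75%; inconclusive = exactly half above 75%; inactive = most below 75%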;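 also: all wells also contain fluconazole at 8 µg/ml as a sub-toxic cotreatment; 0% = median of DMSO wells and 100% = median of geldanamycin control wells; wells of about 8 µL received 7.5 nL stock; the first replicate is given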
Beta cell apopt – beta cell apoptosis inhibition; INS-1E cytokine-induced death, ATP luminescence, 48 h; percent of positive-control rescue, neutral wells zero; protection from apoptosis, % (test concentration not listed); actives 0.8% (n = 300,000);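 active = all replicates at 75% or more, or half of them and the mean; inconclusive = half reach 75% but not the mean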;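 also: 0% = cytokine-treated negative control wells and 100% = positive control rescue; higher means more ATP so stronger rescue from cytokine killing; wells of about 40 µL received 100 nL stock; the first replicate is given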
FGF22 binding – FGF22 (human) thermal shift binding | Q9HCT0 | recombinant FGF22 thermal shift, SYPRO orange fluorescence; percent of sucrose octasulfate shift, DMSO zero | calls only at 9.99 µM | actives 1.5% (n = 340,000) | AID 651658;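 active = melting point raised past a set limit in the mean and every replicate; inconclusive = no clear call; three in four hits are not shown here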
Target sequence (Q9HCT0 whole entry, looked up): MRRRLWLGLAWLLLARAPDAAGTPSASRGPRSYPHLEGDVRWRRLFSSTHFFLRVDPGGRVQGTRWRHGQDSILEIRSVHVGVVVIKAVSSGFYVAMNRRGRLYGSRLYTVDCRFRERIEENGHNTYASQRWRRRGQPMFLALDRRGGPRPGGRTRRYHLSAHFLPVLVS
T cruzi repl – T. cruzi replication inhibition; T. cruzi beta-gal in NIH3T3, luminescence, 90 h; inhibition, % (concentration not given with the values); actives 1.4% (n = 300,000); AID 1885;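 active = mean inhibition across valid replicates above about 55%, limit read from the data; inconclusive = mean below that limit but half or more replicates reach it; inactive = mean below it, under half of replicates reach it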;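 also: signal also drops with host cell toxicity which is not excluded here; 0% = plate median of DMSO wells and 100% = zero luminescence signal; higher percent means less beta-gal luminescence so fewer parasites; stock transfer was 50 nL into about 50 µL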
Ecoli rRNA inh OD600 – second read-out of Ecoli rRNA inh, no call of its own (marks repeat the call); OD600 change, %; measured here: OD600 growth;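 optical density of the mix in the first replicate; 0 = DMSO median and -100 = no signal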
Ecoli rRNA inh RFP – further read-out of Ecoli rRNA inh, marked with its call; RFP signal change, %; measured here: RFP humanized mutant strains;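 first replicate; 0 = DMSO median and -100 = no signal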
Active calls of the source: *; i = inactive; ? = inconclusive; . = no result given; + = active, no number.

SMILES	AF4-AF9 inh	ALR inh	RanGTP-Impb inh	Ecoli rRNA inh	Ecoli rRNA inh OD600	Ecoli rRNA inh RFP	Calb FLC	Beta cell apopt	FGF22 binding	T cruzi repl
O=C(COC(=O)c1ccc(Cl)nc1)NCc1cccs1	-2.9	-7.1	2.6	-1.7	-2.9	-0.3	23.4	1.5	i	-14.9
Cc1oc(-c2ccc(Cl)cc2)cc1C(=O)/C(C#N)=C/Nc1ccccc1	1.3	1.7	6.1	-25.3*	7.3*	4.3*	-5.5	-2.8	i	7.3
CC(C)CNC(=S)Nc1ccc(Oc2ccccc2)cc1	11.4	4.5	3.4	.	.	.	-4.7	-3.5	i	8.9
O=C(/C=C/c1ccc(O)c(O)c1)OC(Cc1ccc(O)c(O)c1)C(=O)O (stereo not given)	12.2	98.8*	-9.0	.	.	.	-2.2	.	i	-13.2
CC(C)c1ccc(O)c(NC(=O)c2ncn[nH]2)c1	.	19.3	.	0.8	1.0	-2.0	28.9	-4.4	.	-18.8
CN(C(=O)COC(=O)c1cc([N+](=O)[O-])ccc1N1CCCC1)C1CCS(=O)(=O)C1 (stereo not given)	3.6	1.0	1.7	3.5	-7.8	-2.2	2.1	-0.1	i	3.9
NC(=O)c1ccccc1NS(=O)(=O)c1ccccc1	.	-6.9	8.9	.	.	.	-2.3	-1.3	.	-6.0
COC(=O)CNC(=O)c1ccccc1C	.	-3.2	4.5	.	.	.	-5.2	-9.1	.	-38.7
CCCCN(CCCC)C(=O)c1cc2ccccc2c(=O)o1	-1.4	-2.4	0.4	-3.5	-0.7	-8.1	0.9	33.3	i	-8.5
O=C(CN1C(=O)C2CCCCC2C1=O)Nc1ccccc1C(=O)O (stereo not given)	0.8	15.4	3.8	4.7	9.7	-2.7	1.2	-7.9	i	-9.1
CCNC(=S)Nc1ccc(Cl)c(C(F)(F)F)c1	.	23.3	-0.8	.	.	.	43.4	13.7	.	5.6
Cc1ccc(N(CC(=O)NC2CCCCC2)S(=O)(=O)c2cccs2)cc1	-8.7	-6.5	-4.5	9.7	10.8	-1.0	-17.5	-4.4	i	12.3
COc1cc(C(=O)OCCc2cc3ccccc3c(=O)o2)cc(OC)c1OC	-3.6	-11.6	.	-39.2	-60.8	-7.9	.	9.3	i	.
CCN(CC)S(=O)(=O)c1ccc(C)c(NC(=O)CSc2ncc(C(F)(F)F)cc2Cl)c1	.	3.1	-0.1	.	.	.	0.0	9.2	.	8.8
Cc1nc(N2CCCCC2C)c2c(C)c(C(=O)Nc3cccc(C(F)(F)F)c3)sc2n1 (stereo not given)	1.0	-4.3	0.2	5.1	7.8	-1.4	14.8	14.0	i	50.7
CCOC(=O)c1nnn(-c2nonc2N)c1CSc1ccccn1	.	-11.2	3.4	.	.	.	2.9	3.1	.	-9.4
CCOc1ccccc1NC(=O)/C=C/c1ccccc1[N+](=O)[O-]	.	-7.9	1.6	.	.	.	-2.1	-17.7	.	6.1
COCC(C)n1c(SCC(=O)Nc2c(C)n(C)n(-c3ccccc3)c2=O)nc2ccccc2c1=O (stereo not given)	0.5	.	.	4.3	12.9	-3.7	.	-1.6	i	.
Brc1ccccc1OCCN1CCOCC1	-18.2	7.6	-2.6	1.3	1.8	-5.0	-0.1	18.6	i	-12.4
Cc1ccc(Cl)cc1NS(=O)(=O)c1ccc2c(c1)NC(=O)C(C)C(=O)N2 (stereo not given)	-3.2	-1.5	3.7	-8.4	-8.3	-7.3	1.2	-5.8	+	-5.4

Part of the list above with just AF4-AF9 inh, ALR inh and Calb FLC:
SMILES	AF4-AF9 inh	ALR inh	Calb FLC
CC(C)CNC(=S)Nc1ccc(Oc2ccccc2)cc1	11.4	4.5	-4.7
O=C(CN1C(=O)C2CCCCC2C1=O)Nc1ccccc1C(=O)O (stereo not given)	0.8	15.4	1.2
Cc1ccc(Cl)cc1NS(=O)(=O)c1ccc2c(c1)NC(=O)C(C)C(=O)N2 (stereo not given)	-3.2	-1.5	1.2
CC(C)c1ccc(O)c(NC(=O)c2ncn[nH]2)c1	.	19.3	28.9
CCOC(=O)c1nnn(-c2nonc2N)c1CSc1ccccn1	.	-11.2	2.9
Brc1ccccc1OCCN1CCOCC1	-18.2	7.6	-0.1

The list continues.
SMILES	AF4-AF9 inh	ALR inh	RanGTP-Impb inh	Ecoli rRNA inh	Ecoli rRNA inh OD600	Ecoli rRNA inh RFP	Calb FLC	Beta cell apopt	FGF22 binding	T cruzi repl
CCn1c2ccccc2c2cc(CN3CCN(S(C)(=O)=O)CC3)ccc21	.	-6.0	-1.8	.	.	.	-0.8	-3.1	.	29.2
COc1cc(/C=C2/C(=N)N3C(=NC2=O)SN=C3S(C)(=O)=O)ccc1OS(=O)(=O)c1ccccc1	.	?	?	.	.	.	1.0	0.1	.	-13.7
CCOC(=O)Cc1[nH]nc2c1C(c1ccsc1)C(C#N)=C(N)O2 (stereo not given)	-1.9	14.9	0.6	17.4	18.6	-0.6	22.7	-9.6	i	-9.3
COc1ccc(CCNc2nc(-c3ccc(NC(C)=O)cc3)cs2)cc1OC	4.7	96.6*	-0.5	-9.8	-4.8	18.3	18.0	-3.0	i	-3.8
CCCCn1c(-c2ccco2)nc2oc3ccccc3c(=O)c2c1=O	4.0	-4.6	0.7	-0.3	4.6	2.8	1.9	3.6	i	25.9
COc1ccc(C(=O)N/C(=C/c2ccco2)C(=O)N2CCCCCC2)cc1	-5.4	56.3	-2.9	9.4	9.6	6.5	27.5	2.4	i	5.5
Cc1cccc(NC(=O)COC(=O)CCc2c[nH]c3ccccc23)c1	-1.5	-1.4	.	4.0	9.8	3.5	.	-2.5	i	.
COC(=O)Sc1nnc(-c2ccc(Br)cc2)o1	.	97.7*	?	.	.	.	-6.8	-10.0	.	-11.5
CN(C)C(CNC(=O)CCCOc1ccccc1)c1ccco1 (stereo not given)	.	3.2	5.3	.	.	.	-1.6	-5.2	.	-7.1
CC(C)C(NC(=O)Cc1ccccc1[N+](=O)[O-])C(C)C	.	-1.8	-1.0	.	.	.	-14.3	-2.4	.	-19.8
Cc1c(C)n(C)c2ccc(C(=O)NCCCN3CCOCC3)cc12	1.5	11.9	1.2	0.8	-1.3	11.3	20.0	-1.5	i	-7.8
CCOC(=O)N1CCN(C(=S)NC(=O)c2ccc(F)c(F)c2)CC1	-2.8	4.6	7.2	5.8	4.1	1.6	-22.0	-1.0	i	0.2
CN(C)c1cccc(C(=O)OCCCC(=O)c2ccc(F)cc2)c1	0.6	-2.2	.	-13.7	-18.1	-4.9	.	-5.1	i	.
C/C(N)=C(/C#N)C(=O)COC(=O)c1ccccc1Cc1ccccc1	-0.4	13.5	-4.8	-58.9	-77.0	-28.1	19.3	7.1	i	29.3
Cc1ccc(S(=O)(=O)N2CCCCC2)cc1NC(=O)CSc1ccc2c(c1)OCCO2	.	0.8	1.3	.	.	.	-13.2	-4.0	.	0.8
O=C(COc1ccc2c(c1)OCO2)Nc1ccccc1F	-2.6	-8.5	4.7	6.9	7.8	2.5	-19.2	-4.7	i	7.2
CCOc1ccc(Br)cc1CNCc1cccnc1	4.4	-1.0	-2.5	-1.4	3.9	-3.4	-3.8	.	i	19.1
CCOc1ccc(NC(=O)NCC2CCN(c3ccc(OC)cc3)C2)cc1 (stereo not given)	.	21.8	1.2	.	.	.	-5.4	7.3	.	15.5
CCOc1ccccc1N1CC(C(=O)NCCOc2ccccc2OC)CC1=O (stereo not given)	4.0	0.4	-0.8	7.0	11.7	2.2	0.4	.	i	-5.5
Cc1cc(C)cc(N2C(=O)CC(Sc3ncn[nH]3)C2=O)c1 (stereo not given)	-0.2	-4.0	-1.7	11.8	14.4	-0.2	5.0	-3.8	i	2.6

Individual results from the entries so far:
Under ALR inh, CCOc1ccc(NC(=O)NCC2CCN(c3ccc(OC)cc3)C2)cc1 (stereo not given) has 21.8
Under Ecoli rRNA inh RFP, CCOC(=O)N1CCN(C(=S)NC(=O)c2ccc(F)c(F)c2)CC1 has 1.6
Under Beta cell apopt, CC(C)C(NC(=O)Cc1ccccc1[N+](=O)[O-])C(C)C has -2.4

Following part:
SMILES	AF4-AF9 inh	ALR inh	RanGTP-Impb inh	Ecoli rRNA inh	Ecoli rRNA inh OD600	Ecoli rRNA inh RFP	Calb FLC	Beta cell apopt	FGF22 binding	T cruzi repl
Cc1noc(C)c1COc1cccc(C(=O)N(C)Cc2cccs2)c1	-22.3	-2.6	.	-7.8	-9.4	0.0	.	-3.0	i	.
O=C1C(Nc2ccccc2)=C(NS(=O)(=O)c2ccccc2)C(=O)c2ccccc21	.	-19.6	1.5	.	.	.	0.9	2.2	.	-3.8
O=C1CC(=O)Nc2cc(S(=O)(=O)Nc3ccc(F)cc3Cl)ccc2N1	-5.8	-5.1	-2.5	11.5	11.2	-0.1	4.2	-8.3	i	-11.4
Cc1ccn2c(=O)c(NC(=O)c3ccc(Br)o3)c(C)nc2c1	-0.2	.	-1.0	8.1	3.0	2.5	-3.3	3.1	i	-8.8
Cc1ccc(SCc2cc(=O)[nH]c(Nc3nc(C)c4ccc(C)cc4n3)n2)cc1	4.4	-1.1	5.8	16.8	3.6	-7.8	2.1	.	i	24.7
O=C(N/N=C/c1cc2c(cc1[N+](=O)[O-])OCO2)c1ccc2c(c1)OCO2	-1.4	-9.2	0.3	13.1	14.1	1.1	2.3	-0.6	i	2.1
CCCCNC(=S)Nc1ccc(SC(F)F)cc1	1.5	98.1*	-2.1	-45.2	-42.8	-10.8	4.5	7.6	i	-38.5
CC(C)CNC(=O)CCCc1c[nH]c2ccccc12	.	35.0	-1.0	.	.	.	-10.4	-3.2	.	-6.1
CCOc1ccc(S(=O)(=O)N2CCCCC2)cc1NC(=O)CN1C(=O)NC(C)(C2CC2)C1=O (stereo not given)	-0.2	.	.	-0.5	-12.1	3.3	.	1.2	i	.
COCCNC(=O)c1cn(C(C)c2ccccc2F)nn1 (stereo not given)	-84.3	-0.3	?	10.4	12.4	-6.5	-0.4	-0.2	.	-2.4
COc1ccc(N(C(C)C(=O)Nc2cccnc2)S(C)(=O)=O)cc1 (stereo not given)	0.4	-2.5	-3.7	6.6	4.1	1.8	8.5	-2.0	.	-9.7
CCOC(=O)C1CCCN(C(=O)c2ccc3c(=O)n(Cc4ccccc4OC)c(=S)[nH]c3c2)C1 (stereo not given)	-5.1	3.1	1.3	-3.4	-1.0	-0.3	2.0	6.0	i	-6.7

Profiles, looked up by structure. Screens in order: AF4-AF9 inh, ALR inh, RanGTP-Impb inh, Ecoli rRNA inh, Ecoli rRNA inh OD600, Ecoli rRNA inh RFP, Calb FLC, Beta cell apopt, FGF22 binding, T cruzi repl
`O=C1CC(=O)Nc2cc(S(=O)(=O)Nc3ccc(F)cc3Cl)ccc2N1` as listed: -5.8, -5.1, -2.5, 11.5, 11.2, -0.1, 4.2, -8.3, i, -11.4
`Cc1ccc(SCc2cc(=O)[nH]c(Nc3nc(C)c4ccc(C)cc4n3)n2)cc1` as listed: 4.4, -1.1, 5.8, 16.8, 3.6, -7.8, 2.1, ., i, 24.7

These rows are one share of the data; count on the stated rates, not on these rows.
